PINK1 modulator – changes PINK1 expression; AID 624263; 0.2% of 410,000 active; PINK1 immunofluorescence, high-content cytometry, 24 h; Potency, µM (doses to about 76.6 µM), without a hit: top-dose activation (PINK1 increase), actives largely listed as activators; active = well fitted activation curve with a large enough effect; inconclusive = small, poorly fitted or top-dose-only effect; inactive = flat fitted curve, though single readings scatter; cell line not stated here;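 further: potency means the concentration at half of the fitted maximal effect; % of control where 0% means no effect; nearly all actives have a fitted effect of over 65% in size; a mitochondrial uncoupler was the plate control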
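PINK1 protein, normally rapidly degraded, was detected by immunofluorescence after 24 hour compound treatment of a stable cell line. Titration data (5 concentrations) came from laser-scanning cytometry, with CCCP-treated wells as controls.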
D2 PAM – human D2 receptor positive allosteric modulation. 0.23% of 360,000 active. DiscoveRx D2 beta-arrestin cells, luminescence, 90 min; 100% = 57 uM dopamine signal. P14416. potentiation, % (concentration not given with the values); active = potentiation of 50% or more; inconclusive = 30% to 50%; inactive = 30% or less;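 further: compound concentration not given in the record; tested on top of an EC20 dose of dopamine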
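D2 cells co-treated with compound plus 50 nM dopamine (EC20) for 90 min at 37 deg C to detect potentiation. Beta-arrestin recruitment was read as enzyme-fragment luminescence after 1 h at ambient temperature. Full response was set by 57 uM dopamine.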
D2 agonist – human D2 receptor agonism in beta-arrestin assay; 0.084% of 360,000 active; activation, % (concentration not given with the values); DiscoveRx PathHunter D2 beta-arrestin, luminescence, 90 min; 100% = 57 uM dopamine signal; in the data active = activation above about 40%; inconclusive = about 15% to 40%; inactive = below about 15%; further: compound concentration not given in the record; the text of the record calls up to 30% inactive
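DiscoveRx PathHunter D2 beta-arrestin cells (2,100/well) attached overnight, then compound-stimulated 90 min at 37 C in HBSS/10 mM HEPES/0.1% Tween-20 buffer; beta-galactosidase complementation read by luminescence after 1 h at ambient temperature. Dopamine 57 uM final (EC100) as control.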
CtBP-E1A blk – blocks the CtBP interaction with E1A. activity change, % (concentration not given with the values). AlphaScreen GST-E1A/His-CtBP binding, 1536-well; active compounds read low; control for the full effect not named in the record. AID 651724. 0.49% of 340,000 active; in the data active means activity change below about -65%; inconclusive means about -30% to -65%; inactive means above about -30%; further: on the % scale 0 is the no-effect control and ±100 the full control effect
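Homogeneous bead-based format: GST-tagged E1A captured on glutathione donor beads, His-tagged CtBP on nickel acceptor beads; compounds precede bead addition by 2 h at 37 °C.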
Six1-Eya2 blk – Six1/Eya2 interaction inhibition. Q15475+O00167. AlphaScreen GST-Six1/His-Eya2 binding, biochemical; active compounds read low; control for the full effect not named in the record. activity change, % (concentration not given with the values). 0.56% of 360,000 active. AID 651725; in the data active = activity change below about -65%; inconclusive = about -30% to -65%; inactive = above about -30%; further: on the % scale 0 is the no-effect control and ±100 the full control effect
Target sequence (O00167 whole entry, looked up): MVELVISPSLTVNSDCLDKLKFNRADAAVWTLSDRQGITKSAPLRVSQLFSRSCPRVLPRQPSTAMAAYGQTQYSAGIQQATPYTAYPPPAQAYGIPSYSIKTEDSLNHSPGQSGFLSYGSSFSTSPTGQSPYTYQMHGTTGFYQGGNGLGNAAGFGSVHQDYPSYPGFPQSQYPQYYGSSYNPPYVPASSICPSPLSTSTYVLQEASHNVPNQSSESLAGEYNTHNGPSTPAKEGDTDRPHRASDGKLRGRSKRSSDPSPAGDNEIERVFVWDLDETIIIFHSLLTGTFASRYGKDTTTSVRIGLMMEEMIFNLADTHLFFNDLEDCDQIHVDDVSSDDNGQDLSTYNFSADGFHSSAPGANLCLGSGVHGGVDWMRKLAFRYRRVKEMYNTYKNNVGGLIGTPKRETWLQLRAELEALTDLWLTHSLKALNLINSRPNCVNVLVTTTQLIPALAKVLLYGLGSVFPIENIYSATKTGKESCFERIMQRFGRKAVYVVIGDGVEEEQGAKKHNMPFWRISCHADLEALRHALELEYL
Target sequence (Q15475 whole entry, looked up): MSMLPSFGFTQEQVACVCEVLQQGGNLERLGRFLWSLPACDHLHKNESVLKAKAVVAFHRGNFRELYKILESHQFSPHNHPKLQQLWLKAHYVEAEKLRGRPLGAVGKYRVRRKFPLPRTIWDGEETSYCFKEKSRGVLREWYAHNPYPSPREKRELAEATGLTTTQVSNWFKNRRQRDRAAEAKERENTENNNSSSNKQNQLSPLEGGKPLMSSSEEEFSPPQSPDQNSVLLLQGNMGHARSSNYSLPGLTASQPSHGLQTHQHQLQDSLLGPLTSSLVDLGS
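Compounds are tested against tagged Six1 and Eya2 proteins bridged by glutathione donor and nickel acceptor beads; after a one-hour incubation at 37 °C without light, AlphaScreen emission is recorded.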
TRPV1 potentiator – potentiators of human vanilloid receptor 1 (TRPV1). potentiation, % at 8.33 µM. TRPV1-expressing cells, Fluo-8 calcium influx, capsaicin EC20 potentiation; host cell line not named in the record; control for the full effect not named in the record. Q8NER1. 0.02% of 320,000 active; active means potentiation above 80%; inconclusive means 30% to 80%; inactive means below 30%; further: 0% is about no effect
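Fluo-8 calcium influx in TRPV1-expressing cells, kinetic read (ex 480/em 520 nm). Compound added and read 3 min for agonist activity, followed by capsaicin at EC20 final and 2 min further read for enhancement.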
Sfp PPTase inh – Sfp phosphopantetheinyl transferase inhibition | Potency, µM, for inactives: max response, negative = inhibition, most hits filed as inhibitors | 3.5% of 310,000 active | Biochemical Sfp PPTase activity, qHTS; active means well fitted inhibition curve with a large enough effect; inconclusive means small, poorly fitted or top-dose-only effect, or another doubt; inactive means no such curve, though single readings can be large or run the other way;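 further: the enzyme is Sfp with the accession as filed and its product quenches rhodamine fluorescence; potency means the concentration at half of the fitted maximal effect; 0% = enzyme reaction without inhibitor and -100% = no enzyme wells; top concentration of the series not given in the record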
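Step 1, compound plus 15 nM Sfp-PPTase, 15 min, room temperature. Step 2, add rhodamine-CoA (5 uM) and BHQ-2-YbbR (12.5 uM). Step 3, read 525/598 nm fluorescence at 0 and 30 min.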
* marks the source's active call; other numbers are inactive results; ? = inconclusive; . = not tested or not shown; & = joins results of further samples; [ ] = dose if it differs, or a comment.

SMILES	PINK1 modulator	D2 PAM	D2 agonist	CtBP-E1A blk	Six1-Eya2 blk	TRPV1 potentiator	Sfp PPTase inh
COc1cccc(NC(=O)c2c(F)cccc2F)c1	0.2%	-6	-1.7	5	1	-14	.
COCCNc1nc(C)cc(-c2cc(C(=O)NC3CCCC3)on2)n1	-1.4%	-2	1.6	6	10	?	9%
COC(=O)NC1c2ccccc2Oc2ccc(C)cc21 (centres undefined)	3.3%	-5	-1.9	4	7	7	9%
C=CCSc1nc2c(cnn2-c2ccc(C)c(C)c2)c(=O)[nH]1	2.1%	-2	-0.7	0	1	9	-9%
O=C1CN(C(=O)COC(=O)C2=COCCO2)c2ccccc2N1	-2.3%	-6	-2.5	5	7	2	-2%
COc1ccc(CCN2CC(C(=O)OCC(=O)NCc3ccccc3Cl)CC2=O)cc1OC (centres undefined)	-0.5%	-2	2.8	-2	0	.	.
O=C(CCN1CCC2CCC(C2)C1)c1ccc(F)cc1 (centres undefined)	-0.7%	-10	-4.6	-2	-4	.	.
COC(=O)[C@@]1(Cc2ccc(F)cc2)[C@H]2c3cc(C(=O)N(C)C)n(CCc4ccccn4)c3C[C@H]2CN1C(=O)c1ccccc1	0.9%	-7	-2.7	2	-5	2	-2%&-1%
Cc1c(C(=O)NC2CCC(C)CC2)oc2ccccc12 (centres undefined)	4.6%	3	9.0	8	6	-13	-13%
CC(c1ccccc1)n1c(-c2cccs2)nc2c(c(=O)c3ccccc3n2C)c1=O (centres undefined)	-1.2%	-9	-2.4	0	-1	3	79µM*
O=C(CSc1ccc2nnc(-c3cccs3)n2n1)N1CCOCC1	0.6%	-5	-4.6	-5	-21	.	.
Cc1ccc2cc(CCNC(=O)c3ccc(C)c([N+](=O)[O-])c3)c(=O)[nH]c2c1	1.2%	-2	-2.3	6	9	-4	-18%
C/C(=N/NC(=O)c1cnccn1)c1ccncc1	-0.6%	-9	-4.2	-7	-5	14	-5%
O=C(CCc1ccccc1Cl)Nc1cc(S(=O)(=O)N2CCOCC2)ccc1N1CCCC1	5.7%	-8	-0.5	2	-12	.	.
Cc1ccc(N)cc1S(=O)(=O)N(C)C	-1.2%	-4	-3.5	0	-9	-6	10%
CCOc1ccc(-c2nc(N)nc(C)c2-c2ccc(Cl)cc2)c(O)c1	1.8%	-7	4.1	.	-29	-1	-3%
Cc1ccc(NC(=O)NCCN2CCCCC2)cc1C	-0.9%	-52	-0.1	.	11	7	21%
CCOc1ccc(NC(=O)c2ccc3[nH]c(=O)c(=O)[nH]c3c2)cc1	2.4%	-9	-2.5	.	-5	-39	8%
Cc1ccc(Cl)c(OCCN2CCCC(C)C2)c1 (centres undefined)	1.0%	-27	-1.5	5	-3	5	-15%
Cc1ccc(S(=O)(=O)Nc2ccc(NC(=O)CN3CCCCC3)c(Cl)c2)cc1	.	-33	-3.5	-1	-7	-5	?

Whole records, looked up by structure. Screens in order: PINK1 modulator, D2 PAM, D2 agonist, CtBP-E1A blk, Six1-Eya2 blk, TRPV1 potentiator, Sfp PPTase inh
Cc1ccc(S(=O)(=O)Nc2ccc(NC(=O)CN3CCCCC3)c(Cl)c2)cc1 is listed as ., -33, -3.5, -1, -7, -5, ?
Cc1ccc(NC(=O)NCCN2CCCCC2)cc1C is listed as -0.9%, -52, -0.1, ., 11, 7, 21%
Cc1ccc(N)cc1S(=O)(=O)N(C)C is listed as -1.2%, -4, -3.5, 0, -9, -6, 10%
Cc1ccc(Cl)c(OCCN2CCCC(C)C2)c1 (centres undefined) is listed as 1.0%, -27, -1.5, 5, -3, 5, -15%
O=C(CSc1ccc2nnc(-c3cccs3)n2n1)N1CCOCC1 is listed as 0.6%, -5, -4.6, -5, -21, ., .

More entries.
SMILES	PINK1 modulator	D2 PAM	D2 agonist	CtBP-E1A blk	Six1-Eya2 blk	TRPV1 potentiator	Sfp PPTase inh
COc1ccc(-n2c(=S)[nH]c3cc(C(=O)Nc4ccc(C)c(F)c4)ccc3c2=O)c(OC)c1	0.5%	-19	-3.3	-12	-13	2	32%[activator]
COc1ccc(C(=O)NNC(=O)Cc2coc3cc(OC)ccc23)cc1	3.9%	-10	-1.4	-11	11	.	.
CCOC(=O)c1[nH]c(C)c(CN(C(C)=O)c2ccc(OCC)cc2)c1C	15%	4	1.0	0	5	-7	7%
O=C1CC2(CCN(S(=O)(=O)c3ccccc3)CC2)Oc2ccccc21	-1.1%	-8	-0.9	0	8	-15	.
O=C(Nc1ncn[nH]1)c1cc(S(=O)(=O)Nc2ccc(Cl)cc2)ccc1Cl	2.4%	1	3.2	-11	-11	6	13%
O=C(CN(C(=O)CNS(=O)(=O)c1ccc(F)cc1)c1ccc(F)cc1)NCc1ccco1	0.4%	-4	-2.4	-1	-2	9	9%
COc1ccc(/C=N/N2CCN(C)CC2)c(OC)c1OC	4.4%	4	0.2	-23	0	0	20%
NCc1ccc2[nH]c(=O)[nH]c2c1	-0.1%	-4	0.9	9	0	6	23%
O=C(Cc1nnc(NC(=O)c2ccccc2)s1)N/N=C/c1ccc(O)cc1	-0.3%	-2	-2.3	-2	-16	5	-40%
CCOC(=O)c1sc2nc(N3CCOCC3)c3c(c2c1N)CCC3	1.0%	0	-5.5	-2	-12	-11	?
O=C(Nc1cccc(S(=O)(=O)NC2=NCCCCC2)c1)c1cc(-c2ccccc2Cl)nc2ccccc12	0.4%	-1	-2.7	2	0	22	-1%
COc1ccccc1N1CCN(C(=O)C2CCN(S(=O)(=O)N3CCOCC3)CC2)CC1	0.3%	-9	-0.7	6	0	-2	12%
O=C(CCCCCN1C(=O)[C@@H]2Cc3ccccc3CN2C1=O)Nc1ccccc1F	0.1%	0	-0.7	4	4	?	10%
CC1(C)CC(=O)C(C=NCCN2CCN(CC(=O)Nc3ccc(F)cc3)CC2)=C(O)C1	-1.2%	0	-0.9	-1	-2	5	9%
COc1ccccc1CO/N=C/c1cccn1-c1nccc(N(C)C)c1C#N	0.2%	-8	-1.6	3	-2	2	-3%
Nc1nonc1-n1nnc(C(=O)N/N=C/c2cccnc2)c1CSC1=NCCS1	3.4%	-5	-3.6	0	-1	-12	13%
Cc1ccc(NC(=O)c2[nH]cnc2C(=O)NN)cc1	0.5%	-7	-2.2	.	-13	-20	-3%
Cc1c(Cl)cccc1Nc1nc(N)nc(CSc2nc3ccccc3s2)n1	9.8%&7.3%	-16	-0.7	-6	-9	7	20%
Cc1cc(=O)c(C(=O)O)nn1-c1ccccc1	2.1%	-3	-0.3	-3	3	17	?
COc1cccc(CNC[C@H]2O[C@@H](n3cnc(C(N)=O)n3)[C@H](O)[C@@H]2O)c1OCc1ccc(F)cc1Cl	0.0%	.	-4.9	-6	1	.	.
COc1ccc(/C=N/NC(=O)c2cccnc2)c2ccccc12	5.0%	-10	1.0	-11	-11	-27	1%
O=c1/c(=C/c2ccco2)sc2n1CN(c1ccccc1)CN=2	1.4%	-10	-2.3	3	-15	6	2%
C#CCOCCOCCOCCNc1nc(N2CCOCC2)nc(N2CCN(C(=O)[C@H](CCCCN)n3cc(CCCC)nn3)CC2)n1	-1.2%	-12	0.1	0	1	.	.
Cc1cc(-c2ccccc2)nc(SCC(=O)c2cccc([N+](=O)[O-])c2)n1	?	-3	-1.6	-19	-24	-6	17%
CCOC(=O)C1CCN(c2c(NCc3ccc(N(C)C)cc3)c(=O)c2=O)CC1	8.9%	-8	-1.0	-4	15	-9	12%
C/C(=N\NC(=O)c1ccc(NS(=O)(=O)c2cccs2)cc1)c1ccccn1	-1.1%	-3	6.0	?	?	-3	3%
CCN(C(=O)Cn1cc(C(C)=O)c2ccccc21)c1ccccc1	0.6%	-9	0.2	.	-1	13	3%
Cc1ccc(S(=O)(=O)c2c(N)n(CCC(C)C)c3nc4ccccc4nc23)cc1	?	-4	-4.4	-7	9	-1	17%
CN(C)S(=O)(=O)N(CC(=O)N1CCN(Cc2ccccc2)CC1)c1ccccc1	-0.6%	-20	-2.7	0	-1	-4	20%
O=C(O)C1OC(C(=O)O)C2C1C(F)(F)C2(F)F (centres undefined)	-3.3%[38.3 µM]	-1	4.4	6	15	0	0%
CCc1cc(C(=O)OCC(=O)NCCc2ccccc2)sc1C	7.0%	-6	-2.2	-17	9	.	.
Cc1nc2c3ccccc3n(CC(=O)c3ccc(F)cc3)c(=O)n2n1	0.1%	-2	-5.1	1	1	-13	7%
COCCCN1C(=O)c2ccc(C(=O)OCC(=O)N(C)c3ccccc3)cc2C1=O	-1.9%	5	6.9	8	4	1	10%
Cc1ccc(C(C)C)c(OC/C(O)=C(\C#N)c2nc3ccccc3[nH]2)c1	?	0	-8.1	3	-17	-6	18%
CC(Sc1nc2ccccc2[nH]1)C(=O)Nc1ccc2c(c1)OCCO2 (centres undefined)	-1.2%	-16	-2.4	-1	-4	-19	-16%
CCc1cccc(NC(=O)C2CCN(c3ncnc4sc(C)c(C)c34)CC2)c1	0.2%	-27	-2.4	-14	-11	.	.
Cc1ccccc1Cn1cnc2ccccc2c1=O	0.8%	-1	-3.8	0	5	-2	12%
CCN(CCn1cccn1)C(=O)CCc1nnc(C2CCCCC2)o1	1.2%	1	-1.6	10	3	0	9%
CCOc1ccc(NC(=O)CN2C(=O)CSC(C)C2=O)cc1 (centres undefined)	3.3%	-1	-1.5	8	1	-16	1%
COc1ccc(/C(O)=C2/C(=O)C(=O)N(CCCN3CCOCC3)C2c2ccc(C(C)C)cc2)cc1 (centres undefined)	-1.4%	-2	2.2	10	-1	?	26%
CCN1CCN(C(c2ccc(OC)cc2)c2nnnn2Cc2ccc3c(c2)OCO3)CC1 (centres undefined)	0.0%	-15	-1.5	.	2	3	22%
Cc1cccc(N(C(=O)CCC(=O)Nc2cccnc2)C(C(=O)NC2CCCC2)c2ccncc2)c1 (centres undefined)	-0.2%	-2	-0.6	0	3	7	-2%
CCC(=O)N(CC)Cc1cc(=O)[nH]c2ccccc12	-1.3%	0	3.2	14	2	-4	30%
Cc1cc(SCC(=O)Nc2ccccc2)nc(C)n1	-1.5%	-13	-0.5	5	-1	-8	17%
CC(=O)c1ccc(N2CCN(C(=O)c3ccc4[nH]c(C)c(C)c4c3)CC2)cc1	2.0%	-17	0.0	?	?	.	.
COc1ccc2c(c1)-c1nc(/N=C/c3ccc(O)cc3)sc1CC2	5.4%	-15	2.9	7	0	15	-8%
O=C(Nc1ccc(N2CCOCC2)c(S(=O)(=O)Nc2cc(Cl)ccc2Cl)c1)c1cccnc1	0.5%	-10	-4.6	.	-9	-27	0%
CN(c1ccccc1)S(=O)(=O)c1cccc(NC(=O)CSc2ncn[nH]2)c1	0.7%	-20	2.5	2	1	13	-4%

Source: PubChem BioAssay
